AID504770 = E. coli YBA685 growth inhibition, screen for V. cholerae RctB inhibitors | E. coli YBA685 rctB-dependent plasmid, OD600 growth, 3 h; hits give low values | hit rate 0.27% among 130,000 | AID 504770 | z-score (test concentration not listed);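 active means z-score under -2 on both plates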;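 further: wells of about 30 µL received 100 nL stock; score is relative to mean and SD of the test wells; the first replicate is given; strong numbers were not always called active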
Ba CapD inh = CapD enzyme inhibition | purified CapD enzyme, fluorescence intensity read-out; hits give low values; some hits fall short of the stated cut | z-score (concentration not given with the values) | hit rate 0.23% among 140,000;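 active means z-score under -4 in either of two replicates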;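 further: stock transfer was 100 nL into about 40 µL; score is relative to mean and spread of the plate; one replicate is shown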
The depositor's hits bear a star; / = no result given. Rows were taken by chance; any-hit rate near 0.41%.

SMILES	AID504770	Ba CapD inh
CC(C)(C)OC(=O)C(Cc1c[nH]c2ccccc12)NC(=O)OCc1cc(C(F)(F)F)ccc1F (stereo not drawn)	/	-0.15
CCOC(=O)c1cnn(-c2ccccc2)c1N	-0.65	0.12
CCc1ccc2[nH]c(=O)c(CN(CCN(C)C)C(=O)Nc3ccccc3Cl)cc2c1	-0.4	/
N#CSCC(=O)n1c2c(c3ccccc31)CCCC2	2	-0.52
CCOC(=O)C(C)Oc1cc(OC(C)C(=O)OCC)c2c(=O)cc(-c3ccccc3)oc2c1 (stereo not drawn)	/	3.6
Cc1cc(C(=O)CN2c3ccccc3CC2C)c(C)n1-c1c(C)n(C)n(-c2ccccc2)c1=O (stereo not drawn)	-0.1	/
CCN1CCN(CCNC(=O)c2ccc(CS(=O)c3ccc(Cl)cc3)o2)CC1 (stereo not drawn)	0.15	-0.58
CC(C)c1nnc(NC(=O)/C=C/c2ccccc2)s1	-0.55	0.29
CC(C)NC(=O)c1ccc(CN(Cc2ccccc2)C(=O)Nc2ccc(F)cc2)o1	-0.3	0.42
NC(=O)c1ccc(Oc2ccc(C(F)(F)F)cc2[N+](=O)[O-])cc1	/	0.54
O=C1CSC(C23CC4CC(CC(C4)C2)C3)N1 (stereo not drawn)	0.3	0.35
FC(F)(F)c1cccc(Nc2ncnc3c2nnn3Cc2ccccc2)c1	1.9	-0.54
COCc1cc(C)[nH]c(=O)c1C(=O)NC12CC3CC(CC(C3)C1)C2	0.9	0.42
CCOC(=O)c1csnn1	/	0.54
c1cc2c(cc1Nc1nc(N3CCCCC3)nc(N3CCCCC3)n1)OCO2	/	0.19
CCCc1nn2c(=O)cc(COc3ccc(NS(=O)(=O)c4ccc(Cl)cc4)cc3)nc2s1	-0.35	-0.21
Cc1ccc(NNC(=S)NCCCN2CCOCC2)c(C)c1	-0.2	/
CC1CN(/C=C/C(=O)C(F)(F)F)CC(C)O1 (stereo not drawn)	-0.25	/
O=C(c1cc(C2CC2)nn1-c1ccccc1)N(Cc1ccco1)Cc1cccs1	-0.65	/
COc1nc(N(C)C)nc(N2CC(=O)N(c3ccccc3)C2=N)n1	/	-0.33
N#Cc1c(-c2ccccc2Cl)noc1/C=C/Nc1ccc(C(F)(F)F)cc1	/	-0.51
COC(=O)C1CCN(C(=O)c2ccc(OC)cc2)CC1	0.15	0.43
O=C(COC(=O)Cc1ccccc1F)NC(c1ccccc1)c1ccccc1	-0.3	0.34
OCc1nc2ccccc2n1CCc1ccccc1	-0.75	0.39
O=C(ON=C1CCN(S(=O)(=O)c2ccccc2)CC1)c1ccc(F)cc1	/	-0.075
O=C1NC(=O)C(C(=S)Nc2ccccc2)C(=O)N1	-0.25	/
COc1nc(Nc2ccc(C)cc2)nc(NC2CCCCC2)n1	/	-0.23
CCCCNC(=O)c1cc(-c2ccc(F)cc2)[nH]c1C	-0.1	0.45
Cc1cc(C)nc(NS(=O)(=O)c2ccc(NC(=O)COc3ccccc3)cc2)n1	/	-0.44
O=C(Nc1ccccc1)Nc1ccc(C(F)(F)F)cn1	0.4	0.77
CCOc1cc(C(=O)Nc2ccc(OC)nc2)ccc1OCC(=O)N1CCCCC1	-0.3	/
CC(=O)Nc1ccc(S(=O)(=O)N(CCO)Cc2ccccc2)cc1	-1.1	/
CC(=O)N1CCc2ccc(NC(=O)C3CCN(c4ccc(C(F)(F)F)cn4)CC3)cc21	/	0.35
Cc1cc(C)c(OCCCN2CCCC2)c(C)c1	-0.05	-0.4
CCc1cc(Br)ccc1S(=O)(=O)N1CCN(c2ncccn2)CC1	/	-1
Cc1cc2n(n1)C(c1ccccc1)CC(c1ccccc1)=N2 (stereo not drawn)	-0.55	-0.78
O=C(O)CC[n+]1ccc(-c2cc[n+](CCC(=O)O)cc2)cc1	-0.25	-0.12
CNC(=S)Nc1cccc(Cn2cc(Cl)cn2)c1	-0.6	-0.4
CCOC(=O)c1c(NC(=S)N2CCN(C(=O)c3ccco3)CC2)sc2c1CCCCCC2	0.25	-0.14
C=CCOc1ccc(CN2CCN(C(=O)CNC(=O)c3ccco3)CC2)cc1	/	0.55
COc1ccc(CCn2c(C)cc(C(=O)CN3CCOCC3)c2C)cc1	-1.9	/
O=C(c1ccccc1NS(=O)(=O)c1ccc(F)cc1)N1CCCC1	-0.1	0.46
COc1cc(C2=N/C(=C/c3c(OC)ccc4ccccc34)C(=O)O2)cc(OC)c1OC	/	0.17
CNC(=O)N1CCn2cccc2C1C (stereo not drawn)	-0.2	2.9
O=c1c2nnn(Cc3ccccc3)c2ncn1Cc1ccc(F)cc1	-0.6	-0.57
CCOC(=O)c1sc2nc(CC(=O)OC)nc(Nc3cccc([N+](=O)[O-])c3)c2c1C	/	-0.48
CN(C1CCCCC1)C1CCN(C(=S)Nc2cc(F)cc(F)c2)CC1	0.25	0.16
N#CC(C#N)=NNc1ccccc1C(N)=O	-3.6*	-6*
Cc1nc(Cc2ccc([N+](=O)[O-])cc2)no1	/	-0.56
CC(C)=NNC(=O)c1cccnc1	/	-0.41
CCOC(=O)c1c[nH]c2ccc(OCC)cc2c1=O	-0.6	3.2
N#CCOC(=O)c1cn(-c2ccccc2)nc1-c1ccccc1	-0.25	/
COCCn1c(NN)nc2ccsc2c1=O	-0.05	-0.24
COc1cc(/C=N/N2C(=O)C(CC(=O)O)SC2=Nc2c(C)n(C)n(-c3ccccc3)c2=O)ccc1O (stereo not drawn)	-1.3	/
COc1cc2c(cc1OC)C(C)N(C(=O)c1c(C)noc1C)CC2 (stereo not drawn)	1.3	1.1
CCSc1nc2ccc(NC(=O)CSc3nnc(C)s3)cc2s1	/	0.6
O=C(Nc1cccnc1Oc1ccc(Cl)cc1)c1cccc2ccccc12	/	-0.18
CC1(C)Cc2c(c(-c3ccccc3)nc3oc4c(-c5ccc(Br)cc5)ncnc4c23)CO1	/	2.6
CCOC(=O)CN1CCOCCN(CC(=O)OCC)CCOCC1	-0.75	/
CCOc1cc(C2CC(=O)Nc3c2ccc2ccccc32)cc(Br)c1OC (stereo not drawn)	/	-0.5

Overlap with the part before: 5 entries, then new ones.
SMILES	AID504770	Ba CapD inh
CCSc1nc2ccc(NC(=O)CSc3nnc(C)s3)cc2s1	/	0.6
O=C(Nc1cccnc1Oc1ccc(Cl)cc1)c1cccc2ccccc12	/	-0.18
CC1(C)Cc2c(c(-c3ccccc3)nc3oc4c(-c5ccc(Br)cc5)ncnc4c23)CO1	/	2.6
CCOC(=O)CN1CCOCCN(CC(=O)OCC)CCOCC1	-0.75	/
CCOc1cc(C2CC(=O)Nc3c2ccc2ccccc32)cc(Br)c1OC (stereo not drawn)	/	-0.5
N#Cc1c(-c2cccs2)cc(C(F)(F)F)[nH]c1=S	-0.2	38
CN1C2=NC(=O)/C(=C\c3ccc([N+](=O)[O-])cc3)N2c2ccccc21	/	0.055
O=C(Nc1ccccc1C(F)(F)F)c1cnc2ccccn2c1=O	-0.35	0.13
COC(=O)C1(C(O)C(=O)c2ccc(C)cc2C)CCCCC1 (stereo not drawn)	1.9	0.17
CN(Cc1ccccc1)C(=O)CSc1nc2cc(C(=O)NCC3CCCO3)ccc2c(=O)n1Cc1ccco1 (stereo not drawn)	/	0.22
Cc1cccc(Cn2c(CN3CCN(c4ccc(F)cc4)CC3)nc3c2c(=O)n(C)c(=O)n3C)c1	/	-0.33
COc1ccc(NC(=O)CN(c2cc(C(F)(F)F)ccc2Cl)S(=O)(=O)c2ccccc2)cc1	/	-0.01
Cc1ccc(NC2=CC(c3ccc(F)cc3)N(c3ccc(C)cc3)C2=O)cc1 (stereo not drawn)	/	11
N#Cc1cc2c(cc1C#N)-n1c(-c3ccccc3)nnc1-c1ccccc1O2	/	-0.12
CC(C)N(Cc1cccs1)C(=O)[C@H]1[C@@H]2C[C@@H]3[C@H]1C(=O)O[C@@H]3C2	0.9	-0.67
COc1ccc2c(c1)C1C=CCC1C(c1ccc(Cl)cc1Cl)N2 (stereo not drawn)	/	0.13
Cc1ccc(C(=O)Nc2cc(=O)n(C)c(=O)n2C)cc1	-0.6	/
Cc1ccc(C)c(N2CCN(S(=O)(=O)c3cccc4nonc34)CC2)c1	/	-0.45
CCCCNC(=O)C1CC(=O)N(C2CCCC2)C1 (stereo not drawn)	-0.9	0.45
O=C(CN1C(=O)S/C(=C\c2ccco2)C1=O)CN1C(=O)S/C(=C\c2ccco2)C1=O	-0.45	/

Single records, as listed above. Order of values: AID504770	Ba CapD inh
Listed for `N#Cc1cc2c(cc1C#N)-n1c(-c3ccccc3)nnc1-c1ccccc1O2` → /	-0.12
Listed for `CCCCNC(=O)C1CC(=O)N(C2CCCC2)C1` (stereo not drawn) → -0.9	0.45
Listed for `COc1ccc2c(c1)C1C=CCC1C(c1ccc(Cl)cc1Cl)N2` (stereo not drawn) → /	0.13

Next results follow.
SMILES	AID504770	Ba CapD inh
COc1ccccc1NC(C)c1cc(Cl)ccc1O (stereo not drawn)	-0.65	0.67
CCc1cc(Br)ccc1S(=O)(=O)NC1CCN(Cc2ccc(OC(C)C)cc2)C1 (stereo not drawn)	/	0.41
COc1cc(C2C(C(=O)N3CCCCC3)=C(C)NC3=C2C(=O)CC(C)(C)C3)cc(Cl)c1O (stereo not drawn)	/	12
C1=CC2c3cc(-c4ccccc4)ccc3NC(c3ccncc3)C2C1 (stereo not drawn)	1.1	4.3
N#Cc1nnn(-c2cc(C(F)(F)F)cc(C(F)(F)F)c2)c1N	-0.6	-0.32
CC(=O)N1CCC(N(CCC(C)C)C(=O)Nc2ccccc2)CC1	0.7	-0.83
CC(C)(C)c1ccc(C(=O)OCC(=O)Nc2ccc(C#N)cc2)cc1	0.75	-0.065
CC(Sc1nc(-c2ccccc2)cc(C(F)(F)F)n1)C(=O)N1CCCCC1 (stereo not drawn)	-0.75	-0.56
NC(=O)c1cc(S(=O)(=O)NCC2CCN(Cc3cccc(F)c3)CC2)cs1	1	-0.23
CCC(Sc1nc(-c2ccc(OC)cc2)nc2c1c(=O)n(C)c(=O)n2C)C(=O)OC (stereo not drawn)	1.1	3.1
O=C(CCC(=O)N1CCC(c2ccccc2)=N1)N1CCN(S(=O)(=O)/C=C/c2ccccc2)CC1	1.2	/
CN(C(=O)C1CCCC1)C1CCS(=O)(=O)C1 (stereo not drawn)	-0.75	/
Cc1cc(Br)ccc1NC(=O)c1ccccn1	-0.85	0.005
CCOC(CNC(=O)c1cccc(NC(=O)Nc2ccccc2C(F)(F)F)c1)(OCC)c1ccccn1	/	0.22
O=C(O)c1cccc2c1-c1ccc(I)cc1C2	/	0.34
COC(=O)C1=C(C(=O)OC)SC2(S1)C(C(=O)OC)=C(C(=O)OC)SC1=C2c2cc(OC)ccc2N(C(=O)Cc2ccccc2)C1(C)C	/	-0.49
O=C(Nc1ncn[nH]1)c1ccc(S(=O)(=O)N2CCOCC2)cc1	1.8	/
Cc1cccc(NC(=O)CC2CCC2)c1	-0.85	-0.52
O=C1OCCC1OC(=O)C1(c2ccc(F)cc2)CCCC1 (stereo not drawn)	-0.55	/
CC1(C)CC(=O)C2=C(C1)c1c(ccc3ncccc13)NC2c1ccccc1 (stereo not drawn)	/	9.3
N#CC1(NC2CCCCC2)CCCCC1	/	0.66
CCOC(=O)C1=C(CC)Nc2ccccc2N=C1NC(=O)c1nc2nccc(C)n2n1	1.4	/
Nc1nc(CN2CCC(Cc3ccccc3)CC2)nc(Nc2ccccc2)n1	-0.1	0.55
Cc1cc(NC(=O)NCc2sccc2C)c(C(F)(F)F)o1	-0.65	-0.56
Cc1onc(-c2ccccc2)c1C1=N/C(=C\c2coc3ccc(Cl)cc3c2=O)C(=O)O1	/	0.1
Fc1ccccc1N1CCN(CCCNc2nc(=S)[nH]c3ccccc23)CC1	0.2	-0.055
CCOc1cccc2cc(C(=O)Nc3ccccc3)c(=Nc3ccc(C(=O)O)cc3)oc12	/	0.47
Cc1cc2cc(CNC(=O)C3CC3)ccc2[nH]1	0.15	0
COc1ccc(-c2cc(SCCN3CCOCC3)c(C#N)c(-c3ccccc3)n2)cc1	-0.25	3.9
Cc1nc([N+](=O)[O-])cn1CC/C(N)=N/O	/	-1.3
COc1cc(/C=C2\C(=O)NC(=O)N(c3ccc(Cl)cc3)C2=O)cc(OC)c1O	/	-0.72
c1cc2c(cc1C1=NCCC1)OCCO2	-0.65	/
COc1ccccc1OCCn1c(=N)n(CCOc2ccccc2)c2ccccc21	-0.9	0.43
CCOc1ccccc1N1CCN(C(=O)[C@@H]2CCCN2C(=O)c2cccs2)CC1	-0.05	/
COc1cccc(-c2nn3c(Cc4ccccc4)nnc3s2)c1	0.15	-0.27
Cc1cccc(S(=O)(=O)NC2CCCCC2C)c1 (stereo not drawn)	-0.35	/
Cc1c(NC(=O)COCc2cc(-c3cccs3)on2)c(=O)n(-c2ccccc2)n1C	-0.8	0.14
CCC(C(=O)Nc1cccc(C(=O)NC2CC2)c1)n1nnc(-c2ccc(Cl)cc2)n1 (stereo not drawn)	0	/
CCOC(=O)CSc1nc2cc(Cl)c(Cl)cc2n1CC	-0.4	8.6
COC(=O)c1ccc(CN2CCC(c3nc4ccccc4s3)CC2)o1	0	/
Cc1ccc(C(C)C)c(OCCn2ccnc2)c1	1.4	-0.35
COC(CNC(=O)c1c(O)nc2ccccn2c1=O)OC	-0.4	/
CCOC(=O)Cc1csc(NC(=O)c2c(O)c3ccccc3n(CC(C)C)c2=O)n1	/	0.2
CCc1cccc(CC)c1NC(=O)COC(=O)c1cccs1	-0.05	0.4
Cc1ccn2cc(C(=O)NCc3ccccc3)nc2c1	1.6	/

Filtered by structure: the compounds so far containing an aryl thioether with sulfur outside any ring (6)
SMILES	AID504770	Ba CapD inh
CCSc1nc2ccc(NC(=O)CSc3nnc(C)s3)cc2s1	/	0.6
CN(Cc1ccccc1)C(=O)CSc1nc2cc(C(=O)NCC3CCCO3)ccc2c(=O)n1Cc1ccco1 (stereo not drawn)	/	0.22
CC(Sc1nc(-c2ccccc2)cc(C(F)(F)F)n1)C(=O)N1CCCCC1 (stereo not drawn)	-0.75	-0.56
CCC(Sc1nc(-c2ccc(OC)cc2)nc2c1c(=O)n(C)c(=O)n2C)C(=O)OC (stereo not drawn)	1.1	3.1
COc1ccc(-c2cc(SCCN3CCOCC3)c(C#N)c(-c3ccccc3)n2)cc1	-0.25	3.9
CCOC(=O)CSc1nc2cc(Cl)c(Cl)cc2n1CC	-0.4	8.6
